FGF22 binding – binders of human FGF22 protein, primary screen, FGF22 synaptogenesis inhibitor project, biophysical, thermal shift, single point. Fibroblast growth factor 22 (Homo sapiens), Q9HCT0. recombinant FGF22 thermal shift, SYPRO orange fluorescence; percent of sucrose octasulfate shift, DMSO zero. calls only at 9.99 µM. 340,000 tested, 1.5% active. AID 651658, 2012;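 active = melting point raised past a set limit in the mean and every replicate; three in four hits are not shown here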
Target sequence (Q9HCT0 whole entry, looked up): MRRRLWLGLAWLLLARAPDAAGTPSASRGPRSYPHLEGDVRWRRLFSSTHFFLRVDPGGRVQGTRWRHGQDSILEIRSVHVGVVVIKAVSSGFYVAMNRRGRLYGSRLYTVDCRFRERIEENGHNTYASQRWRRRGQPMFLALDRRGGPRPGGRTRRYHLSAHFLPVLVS
Ecoli rRNA inh – reduced GFP signal of wild-type E. coli, primary screen, bacterial rRNA inhibitor project, GFP/RFP fluorescence, OD600, single point | E. coli WT GFP vs humanized-ribosome RFP mutants, 24 h; hits give low values; DMSO median 0, no signal -100 | 350,000 tested, 1.6% active | GFP signal change (wild-type ribosome), % (test concentration not listed);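 active = significant combined selectivity score with lowered wild-type GFP, culture density cut under 30%, mutant RFP and density less affected; inactive = any of these conditions unmet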; also: one replicate is shown; some compounds called inactive have numbers as strong as hits
Ecoli rRNA inh OD600 – further read-out of Ecoli rRNA inh, marked with its call; OD600 change, %; measured here: OD600 growth;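 optical density of the mix in the first replicate; 0 = DMSO median and -100 = no signal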
Ecoli rRNA inh RFP – second read-out of Ecoli rRNA inh, no call of its own (marks repeat the call); RFP signal change, %; measured here: RFP humanized mutant strains;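 first replicate; 0 = DMSO median and -100 = no signal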
An asterisk follows results filed as active; i = inactive; + = active, no number; & = joins results of further samples. A portion of the library (hit frequency here may not be typical).

smiles,Ecoli rRNA inh OD600,Ecoli rRNA inh RFP,Ecoli rRNA inh,FGF22 binding
COc1ccc(N2C(=O)c3n[nH]c(C)c3C2c2cccc(C(F)(F)F)c2)cc1 (stereo unspecified),-36,-7.2,-28,i
NC(=O)c1ncn([C@@H]2O[C@H](C(=O)O)[C@@H](O)[C@H]2O)n1,19,0.6,32,i
COc1ccc(S(=O)(=O)N2CCCCN3[C@H](CO)[C@H](c4ccc(C5=CCCC5)cc4)[C@@H]3C2)cc1,-5,3.9,0,i
Cc1noc(C)c1S(=O)(=O)N(C)C[C@H]1OCCCC[C@@H](C)Oc2ccc(NS(=O)(=O)c3ccc(F)cc3)cc2C(=O)N([C@@H](C)CO)C[C@H]1C,-1,1.5,-2,i
Cc1ccc(S(=O)(=O)Nc2cccc3c2O[C@H](CN(C)S(=O)(=O)c2ccc(F)cc2)[C@@H](C)CN([C@H](C)CO)C3=O)cc1,9,0.4,3,i
Cc1ccc(S(=O)(=O)Nc2ccc3c(c2)C(=O)N([C@H](C)CO)C[C@H](C)[C@@H](CN(C)Cc2ccccc2)OCCCC[C@H](C)O3)cc1,1,0.5,0,i
COc1ccc(CN(C)C[C@H]2OCCCC[C@@H](C)Oc3ccc(NS(=O)(=O)c4c(C)noc4C)cc3C(=O)N([C@@H](C)CO)C[C@@H]2C)cc1,-5,2.2,-3,i
O=C(C[C@@H]1CC[C@H]2[C@@H](COC[C@H](O)CN2Cc2ccc(C(F)(F)F)cc2)O1)N1CCc2ccccc2C1,-78,-13,-51,i

Overlap with the part before: 4 entries; new compounds follow.
smiles,Ecoli rRNA inh OD600,Ecoli rRNA inh RFP,Ecoli rRNA inh,FGF22 binding
Cc1ccc(S(=O)(=O)Nc2cccc3c2O[C@H](CN(C)S(=O)(=O)c2ccc(F)cc2)[C@@H](C)CN([C@H](C)CO)C3=O)cc1,9,0.4,3,i
Cc1ccc(S(=O)(=O)Nc2ccc3c(c2)C(=O)N([C@H](C)CO)C[C@H](C)[C@@H](CN(C)Cc2ccccc2)OCCCC[C@H](C)O3)cc1,1,0.5,0,i
COc1ccc(CN(C)C[C@H]2OCCCC[C@@H](C)Oc3ccc(NS(=O)(=O)c4c(C)noc4C)cc3C(=O)N([C@@H](C)CO)C[C@@H]2C)cc1,-5,2.2,-3,i
O=C(C[C@@H]1CC[C@H]2[C@@H](COC[C@H](O)CN2Cc2ccc(C(F)(F)F)cc2)O1)N1CCc2ccccc2C1,-78,-13,-51,i
COCC(=O)Nc1ccc2c(c1)[C@@H]1C[C@@H](CC(=O)N3CCN(C)CC3)O[C@@H](CO)[C@@H]1O2,2,0.3,4,i
CNC(=O)C[C@H]1CC[C@@H]2[C@H](COc3ccc(NS(=O)(=O)c4ccc(F)cc4)cc3C(=O)N2C)O1,8,-0.5,5,i
C[C@@H]1CN([C@H](C)CO)C(=O)c2cc(NC(=O)Nc3cccc4ccccc34)ccc2O[C@@H](C)CCCCO[C@@H]1CN(C)Cc1ccc(C(F)(F)F)cc1,0,-0.1,3,i
COCCNC(=S)N(C)[C@H]1C[C@H]2c3[nH]c4ccccc4c3CCN2C[C@H]1[C@H](C)O,22,4.3,21,i
CCNC(=O)N1CCN(c2ccc(N3CCN(C(=O)NCC)[C@@H](C)C3)c(C)c2)[C@@H](C)C1,2,4.4,-1,i
COCCNC(=O)C[C@H]1C[C@@H]2c3cc(NC(=O)Nc4ccc(F)cc4)ccc3O[C@@H]2[C@@H](CO)O1,1,-0.4,2,i
C/C=C/c1ccc([C@H]2[C@@H](CO)N(C(C)=O)[C@@H]2CN(C(=O)COC)C(C)C)cc1,9,-1.2,2,i
C/C=C/c1ccc([C@@H]2[C@@H](CO)N(C(=O)C3CC3)[C@H]2CN(C)C(=O)CC2CC2)cc1,-8,0.6,-2,i

Shown with each value named: part of the list above
> C/C=C/c1ccc([C@@H]2[C@@H](CO)N(C(=O)C3CC3)[C@H]2CN(C)C(=O)CC2CC2)cc1
  Ecoli rRNA inh OD600: -8; Ecoli rRNA inh RFP: 0.6; Ecoli rRNA inh: -2; FGF22 binding: i
> C/C=C/c1ccc([C@H]2[C@@H](CO)N(C(C)=O)[C@@H]2CN(C(=O)COC)C(C)C)cc1
  Ecoli rRNA inh OD600: 9; Ecoli rRNA inh RFP: -1.2; Ecoli rRNA inh: 2; FGF22 binding: i

(listing goes on)
smiles,Ecoli rRNA inh OD600,Ecoli rRNA inh RFP,Ecoli rRNA inh,FGF22 binding
C[C@@H]1CCCCO[C@H](CN(C)Cc2ccc3c(c2)OCO3)[C@@H](C)CN([C@@H](C)CO)C(=O)c2cc(NC(=O)Nc3cccc4ccccc34)ccc2O1,-41,4.4,-28,i
COc1ccc(C2CC(=O)C(c3ccc(Br)cc3)=CN2Cc2ccccc2)cc1 (stereo unspecified),2,4.8,3,i
C[C@H]1CN([C@@H](C)CO)C(=O)Cc2cc(NC(=O)Nc3ccccc3)ccc2O[C@H]1CN(C)C(=O)Nc1ccc(C(F)(F)F)cc1,-7,2.2,-2,i
C[C@@H]1CCCCO[C@H](CN(C)C(=O)Nc2cccc3ccccc23)[C@H](C)CN([C@@H](C)CO)C(=O)c2cc(NC(=O)Nc3ccccc3)ccc2O1,2,4.1,4,i
C[C@@H]1CCCCO[C@@H](CN(C)S(=O)(=O)c2cn(C)cn2)[C@H](C)CN([C@H](C)CO)C(=O)c2cc(NC(=O)Nc3ccc(C(F)(F)F)cc3)ccc2O1,-1,1.7,-6,i
C[C@@H]1CCCCO[C@@H](CN(C)S(=O)(=O)c2cccs2)[C@@H](C)CN([C@@H](C)CO)C(=O)c2cc(NC(=O)Cc3ccccc3)ccc2O1,6,1.1,-3,i
COCCN(CCOC)C(=O)[C@H](CCc1ccccc1)NC(=O)[C@H]1O[C@@H](n2cnc3c(N)ncnc32)[C@H](O)[C@@H]1O,11,-0.4,12,i
C[C@@H]1CCCCO[C@H](CN(C)Cc2ccc(C(F)(F)F)cc2)[C@@H](C)CN([C@H](C)CO)C(=O)c2cc(NS(C)(=O)=O)ccc2O1,3,0.3,-2,i
c1ccc(-c2nc3ccccc3nc2-c2ccc(CN3CCC(c4nc5ccccc5[nH]4)CC3)cc2)cc1,-73,-15,-55,i
CNC(=O)C[C@H]1CC[C@@H]2[C@H](COc3ccc(NC(=O)c4ccc5c(c4)OCO5)cc3C(=O)N2C)O1,11,-0.4,3,i
COc1ccc2c3c(n(C)c2c1)[C@H](CO)N(Cc1ccccc1)CC31CN(CC2CC2)C1,4,-1.5,6,i
CN(CCc1ccccn1)C(=O)[C@@H](Cc1ccccc1)NC(=O)[C@H]1O[C@@H](n2ccc(=O)[nH]c2=O)[C@H](O)[C@@H]1O,-5,5.4,13,i
COCCNC(=O)C[C@H]1CC[C@@H]2[C@H](COC[C@@H](O)CN2Cc2ccc(Cl)c(Cl)c2)O1,-19,-1.7,-4,i
O=C(C[C@@H]1CC[C@@H]2[C@H](COC[C@H](O)CN2C(=O)c2ccccc2)O1)Nc1ccccc1,10,0.5,3,i
C[C@H](CO)N1C[C@H](C)[C@H](CN(C)S(=O)(=O)c2ccccc2)Oc2ccc(NS(=O)(=O)c3ccc(Cl)cc3)cc2C1=O,-2,5.3,3,i
COC(=O)C1=C(C)N(Cc2ccc(F)cc2)C(=S)NC1c1ccccc1 (stereo unspecified),-29,-6.2,-22,i
CC(C)C[C@H](NC(=O)c1ccccn1)C(=O)N1CCC[C@H]1C(=O)NCc1ccccc1,20,1.7,19,i
C[C@@H]1CN([C@H](C)CO)C(=O)Cc2cc(NS(=O)(=O)c3ccccc3)ccc2O[C@H]1CN(C)S(=O)(=O)c1ccc(F)cc1,-3,-0.2,-2,i
CC(C)C[C@H](NC(=O)C1CC1)C(=O)N1CCC[C@H]1C(=O)NCc1ccccc1,-2,2.5,1,i
C[C@H]1CCCCO[C@H](CN(C)Cc2ccc(C(F)(F)F)cc2)[C@@H](C)CN([C@@H](C)CO)C(=O)c2cc(NS(C)(=O)=O)ccc2O1,-3,0.8,0,i
CC=Cc1ccc2n(c1=O)C[C@@H]1[C@@H](CO)[C@H](C(=O)N3CCCCC3)[C@H]2N1Cc1ccccn1 (mixture of isomers),0,-0.8,1,i
CNC(=O)C[C@H]1CC[C@@H]2[C@H](COc3ccc(NC(=O)c4ccc(C(F)(F)F)cc4)cc3C(=O)N2C)O1,-5,-3.0,-2,i
COc1cccc(NC(=O)N2C[C@H](O)COC[C@H]3O[C@@H](CC(=O)NCCCN4CCOCC4)CC[C@@H]32)c1,2,3.4,-2,i
COC(=O)C1=C(C)N(Cc2ccccc2C(F)(F)F)C(=NCc2ccccc2)NC1c1ccc(F)cc1 (stereo unspecified),-79,-15,-44,i
CN1C(=O)c2cc(NC(=O)Cc3ccccc3)ccc2OC[C@@H]2O[C@@H](CC(=O)NCc3ccc(Cl)cc3)CC[C@@H]21,-9,4.0,0,i
Nc1ccn([C@@H]2O[C@H](C(=O)N[C@H](Cc3ccccc3)C(=O)N3CCN(CC(=O)N4CCCC4)CC3)[C@@H](O)[C@H]2O)c(=O)n1,11,2.2,6,i
C[C@@H]1CCCCO[C@H](CN(C)S(=O)(=O)c2ccc(F)cc2)[C@H](C)CN([C@@H](C)CO)C(=O)c2cc(NC(=O)Nc3ccc(F)cc3)ccc2O1,-1,1.3,1,i
Cc1noc(C)c1NC(=O)N(C)C[C@@H]1OCCCC[C@H](C)Oc2ccc(NS(=O)(=O)c3cn(C)cn3)cc2C(=O)N([C@@H](C)CO)C[C@H]1C,0,-1.3,0,i
Cc1noc(C)c1NC(=O)N(C)C[C@H]1Oc2ccc(NC(=O)Cn3cnnn3)cc2CC(=O)N([C@@H](C)CO)C[C@@H]1C,0,-2.2,-1,i
N#C[C@@H]1[C@H](c2ccccc2C2=CCCCC2)[C@@H](CO)N1C(=O)c1ccccn1,-20,-6.8,-11,i
CN1CCN(C(=O)C[C@@H]2C[C@H]3c4cc(NC(=O)Nc5ccccc5)ccc4O[C@H]3[C@H](CO)O2)CC1,3,0.7,3,i
COc1ccc(NC(=O)Nc2cccc3c2O[C@H](CN(C)C(=O)Nc2cccc4ccccc24)[C@@H](C)CN([C@@H](C)CO)C3=O)cc1,-4,1.5,-2,i
O=C(N[C@H](C(=O)N1CCC[C@H]1C(=O)NC1CCCC1)C1CCCCC1)c1ccccn1,8,3.5,9,i
CN1c2ccc(-c3ccccc3F)cc2[C@H]2[C@H](CCN2S(=O)(=O)c2ccc(F)cc2)[C@H]1CO,-2,3.7,-2,i
O=C(Nc1ccc(F)cc1)Nc1ccc2c(c1)[C@H]1C[C@H](CC(=O)N3CCCCC3)O[C@@H](CO)[C@H]1O2,-11,1.0,-2,i
O=C(C[C@H]1CC[C@H]2[C@@H](COC[C@@H](O)CN2C(=O)c2cnccn2)O1)N1CCN(c2ccccc2)CC1,-6,-0.6,1,i
CCNC(=O)Nc1ccc2c(c1)C(=O)N(C)[C@@H]1CC[C@H](CC(=O)NCc3cccc(F)c3)O[C@H]1CO2,3,0.2,1,i
COc1cccc(S(=O)(=O)Nc2ccc3c(c2)C(=O)N(C)[C@@H]2CC[C@H](CC(=O)O)O[C@H]2CO3)c1,5,-1.8,1,i
NC(=O)c1ncn([C@@H]2O[C@H](C(=O)N[C@H](Cc3c[nH]c4ccccc34)C(=O)N3CCN(C(=O)N4CCCCC4)CC3)[C@@H](O)[C@H]2O)n1,16,-1.0,32,i
COc1ccc(NC(=O)Nc2ccc3c(c2)C(=O)N([C@@H](C)CO)C[C@H](C)[C@@H](CN(C)S(=O)(=O)c2c(C)noc2C)OCCCC[C@@H](C)O3)cc1,-4,-1.8,-2,i
O=C(CCc1c[nH]c2ccccc12)Nc1ccc(Nc2ccccc2)cc1,-45,9.1,-31,+
C/C=C/c1ccc(C2[C@H]3CNC[C@@H]2N3C(=O)Nc2ccc(C(F)(F)F)cc2)cc1 (stereo partly specified),-81&-78,-16&-17,-58&-56,i
O=C(C[C@H]1CC[C@H]2[C@@H](COC[C@H](O)CN2C(=O)c2cccnc2)O1)Nc1ccc(-c2ccccc2)cc1,-2,17,-2,i
C[C@@H]1CCCCO[C@@H](CN(C)CC2CC2)[C@@H](C)CN([C@H](C)CO)C(=O)c2cc(NS(=O)(=O)c3cccs3)ccc2O1,4,-0.9,3,i
Cc1noc(C)c1NC(=O)N(C)C[C@@H]1OCCCC[C@@H](C)Oc2ccc(NC(=O)Nc3ccccc3)cc2C(=O)N([C@H](C)CO)C[C@@H]1C,7,-2.2,10,i
CC(C)NC(=O)Nc1ccc2c(c1)C(=O)N(C)[C@H]1CC[C@H](CC(=O)NC3CCCCC3)O[C@H]1CO2,1,1.0,-1,i
Fc1cccc(-c2ccc(C3[C@@H]4CN(Cc5cncnc5)C[C@H]3N4)cc2)c1 (stereo partly specified),2&3,3.8&2.2,-9&-10,i
O=C(Cc1c[nH]c2ccccc12)Nc1ccc(Nc2cccnc2)c(Br)c1,-57,8.1,-29,i
C[C@@H]1CN([C@H](C)CO)C(=O)c2cccc(NC(=O)Nc3ccc(C(F)(F)F)cc3)c2O[C@@H]1CN(C)C(=O)Nc1ccc2c(c1)OCO2,8,1.2,6,i
